# H5N1 CPE: MDCK cell protection from H5N1 avian flu. cytopathic effect, luminescence, 72 h; stronger effect = higher value; no value below 0 was filed and about half of the inactive calls have no number; reference of the scale not given here. inhibition, % at 50 µM. 96,000 compounds, 0.07% hits; in the data active = inhibition above about 25%
# * = called active by the depositor; i = inactive. Only part of the results is shown. The share of hits here may be higher or lower than overall.
mol | H5N1 CPE
CC(O)C(NS(=O)(=O)c1ccc(Cl)cc1)C(=O)OCc1nnc(-c2ccccc2)o1 (configuration not stated) | 0.1
Cc1ccc(N2CC(C(=O)OCc3ccc([N+](=O)[O-])cc3)CC2=O)cc1 (configuration not stated) | i
COc1cccc(C2C(C(=O)Nc3ccc(C)cc3C)=C(C)Nc3ncnn32)c1OC (configuration not stated) | i
Cn1nnnc1SCC(=O)NC1CCCCC1 | 0.8
Cc1ccc(OCc2ccc(C(=O)Nc3nccs3)o2)cc1 | i
O=C(OCC(=O)N1CCN(C(=O)c2ccco2)CC1)c1ccccc1O | i
O=C(Nc1ccccc1-c1ccccc1)c1ccc(Br)o1 | i
CCCN1C(=O)C(NC(=O)c2ccncc2)(C(F)(F)F)C2=C1CC(C)(C)CC2=O (configuration not stated) | 0.5
Cc1ccc2nc(NC(=O)c3cccc(-c4cc5ccccc5oc4=O)c3)sc2c1 | 0.4
COC(=O)c1ccccc1NC(=O)c1ccc(Cn2cc(Cl)cn2)o1 | 2.5
CCOC(=O)N1CCC2(CC1)CC(=O)c1cc(O)ccc1O2 | i
COc1ccc(C(C(=O)NC(C)(C)C)N(CC2CCCO2)C(=O)CCC(=O)Nc2cc(C)on2)cc1 (configuration not stated) | 0.2
CSc1nncn1/N=C/c1ccccc1F | 0.6
Cn1c(=O)oc2cc(S(=O)(=O)N3CCCC(C(=O)Nc4nccs4)C3)ccc21 (configuration not stated) | 4.3
O=c1cc(-c2ccccc2Cl)c2c([nH]1)CCC2 | 0.1
COc1cccc(-c2csc(NC(=O)C3CC3)n2)c1 | 0.5
CCCCNC(=O)C1C2C=CC3(CN(Cc4ccccc4Cl)C(=O)C13)O2 (configuration not stated) | 0.5
O=S(=O)(Cc1cc(Oc2ccccc2)nc(-c2ccccc2)n1)c1ccccc1 | 0.8
Cc1cc(C)n(CC(=O)N/N=C/c2ccco2)n1 | 3.0
CCCn1c(=NC(=O)c2ccco2)c(C(=O)OCC)cc2c(=O)n3ccccc3nc21 | 2.3
CCc1cc2c(=O)[nH]cnc2s1 | i
Cc1ccc2oc(=O)cc(CN3CCC(C)CC3)c2c1 | 1.6
O=C(C1CCN(Cc2cc(Cl)ccc2O)CC1)N1CCN(Cc2ccccc2)CC1 | i
Cc1ccc(NC(=O)CCc2c(C)nc3ncnn3c2C)cc1 | i
Cc1ccc(NC(=S)NCCN2CCOCC2)cc1 | 0.6
Cn1c(N)c(C(=O)c2ccccc2)c(=O)n(C)c1=O | i
O=C(CC(Nc1ccccc1)C(=O)O)c1ccccc1 (configuration not stated) | i
COc1cccc(C2CC(C(F)(F)F)n3ncc(C(=O)NCC4CCCO4)c3N2)c1 (configuration not stated) | i
Cc1c(N=C2NC(=O)C(CC(=O)Nc3ccc(Cl)cc3)S2)c(=O)n(-c2ccccc2)n1C (configuration not stated) | 1.4
COc1ccccc1-n1c(SCC(=O)N2CCCCC2)nc2cccnc21 | 1.1
CCOC(=O)CN1C(=O)C(=O)c2cccc(C)c21 | i
Cc1ccc(-c2nnc(SCC(=O)N3CCN(c4ccccc4)CC3)o2)cc1 | 1.6
Cc1c(N=Cc2nc3ccccc3n2C)c(=O)n(-c2ccccc2)n1C | i
COc1ccc(CNC(=O)C2C3C=CC4(CN(Cc5cccnc5)C(=O)C24)O3)cc1 (configuration not stated) | 0.3
CCOC(=O)Cn1cnc2c(nnn2-c2ccc(OC)cc2)c1=O | i
O=C(O)CSc1nnc(CNc2ccccc2Cl)n1-c1ccccc1 | 0.3
CC(C)Cc1cc(C(=O)N2CCN(c3ccc(F)cc3)CC2)no1 | i
CCc1cccc(NC(=O)C2CCCC2)c1 | i
O=[N+]([O-])c1cccc(-c2nnn(C34CC5CC(CC(C5)C3)C4)n2)c1 | 1.5
Cc1ccc(C2N(c3cccc(Cl)c3)C(=O)C3CCCN32)o1 (configuration not stated) | i
Cc1ccc(Nc2nc(N3CCOCC3)nc(N3CCOCC3)n2)cc1 | i
O=C(Nc1nc(N2C(=O)c3ccccc3C2=O)n(-c2ccccc2)n1)c1ccc(Cl)cc1 | i
Fc1ccc(-c2[nH]ncc2-c2nnnn2-c2ccccc2)c(F)c1 | 1.2
COc1ccc(-c2nn(-c3ccccc3)cc2CO)cc1OC | i
O=C(CN1CCN(Cc2ccc3c(c2)OCO3)CC1)N1CCc2[nH]c3ccc(F)cc3c2C1 | i
CCN(CC(=O)Nc1ccccc1OC)C(=O)C1CC2C=CC1C2 (configuration not stated) | 1.4
Cc1nnsc1SCCNC(=O)c1c(F)cccc1F | 0.5
O=C1OCCC1Sc1nc2ccccc2n1-c1ccccc1 (configuration not stated) | i
COc1cccc(C2CC(c3ccccc3Cl)n3ncnc3N2)c1 (configuration not stated) | 1.1
CN1CCN(c2nc3nonc3nc2N2CCN(C)CC2)CC1 | 1.7
c1ccc(-c2noc(C3CCCCC3)n2)nc1 | i
COc1cc(C2=NOC(C(=O)N3CCN(c4ccc(F)cc4)CC3)C2)cc(OC)c1OC (configuration not stated) | 0.2
CCOC(=O)N1CCN(C(=O)C2c3cc(OC)c(OC)cc3C(=O)N3CCc4ccccc4C23)CC1 (configuration not stated) | 1.7
CCc1cccc(NC(=O)CCc2nc(-c3cccs3)no2)c1 | i
Cc1ccc(S(=O)(=O)C(C#N)c2nc3ccccc3nc2N2CC(C)OC(C)C2)cc1C (configuration not stated) | 1.1
CCOC(=O)/C=C1\NC(=O)C(C)S1 (configuration not stated) | 0.2
Cc1cc(C)n(CCOc2ccc(Cl)cc2Cl)n1 | i
COc1cc(C)c(Cl)c(C)c1S(=O)(=O)NCc1ccc2c(c1)OCO2 | 0.7
COc1ccc(N2CCN(C(=O)c3ccc(-n4nc(C)cc4C)cc3)CC2)cc1 | i
COC(=O)NC(=S)Nc1ccc(Oc2ccc(Cl)cc2)c(Cl)c1 | i

# (continued)
mol | H5N1 CPE
COc1cccc(-c2noc(CCC(=O)Nc3cccnc3)n2)c1 | 0.4
Cn1cnnc1SC1CCCCC1NS(=O)(=O)c1ccccc1 (configuration not stated) | 0.3
CC(C)Oc1ccc(-c2cc(C(=O)NCCN3CCOCC3)c3ccccc3n2)cc1 | 1.8
CCOc1cc(C(=O)Nc2cc(C)on2)cc(OCC)c1OCC | i
CN(Cc1ccco1)C(=O)C1CCC(=O)N1Cc1ccc(F)cc1 (configuration not stated) | i
COc1cccc(-c2nnc(NC(=O)c3ccc(S(=O)(=O)N4CC(C)OC(C)C4)cc3)o2)c1 (configuration not stated) | 1.0
Clc1ccc(-c2cn3nc4c(nc3n2)CCCC4)cc1 | i
CCCCSc1nc(C)c(CC(=O)OC)c(=O)[nH]1 | i
CS(=O)(=O)c1cnc2c(-c3ccc(F)cc3)cnn2c1N | 0.4
CCP(=O)(c1ccccc1)C(C)(C)O (configuration not stated) | i
CC(=O)N(C)C1=C(N2CCOCC2)C(=O)c2ccccc2C1=O | i
CCOc1ccc(S(=O)(=O)N/N=C2/CC(c3ccccc3)Oc3ccccc32)cc1 (configuration not stated) | i

# Five entries from above, ordered by formula weight, ascending.
mol | H5N1 CPE
CCP(=O)(c1ccccc1)C(C)(C)O (configuration not stated) | i
CCCCSc1nc(C)c(CC(=O)OC)c(=O)[nH]1 | i
COc1cccc(-c2noc(CCC(=O)Nc3cccnc3)n2)c1 | 0.4
CCOc1cc(C(=O)Nc2cc(C)on2)cc(OCC)c1OCC | i
CC(C)Oc1ccc(-c2cc(C(=O)NCCN3CCOCC3)c3ccccc3n2)cc1 | 1.8

# The results go on:
mol | H5N1 CPE
Cc1csc(SCC(=O)Nc2ccc(Cl)cn2)n1 | 1.4
O=C(CCc1ccc(S(=O)(=O)NCCc2ccccc2)cc1)Nc1ccc2c(c1)OCO2 | i
COc1ccc(OC)c(S(=O)(=O)N2CCC(C(=O)Nc3cccc(C)c3C)CC2)c1 | i
COC(=O)C1=C(CSc2nccn2C)NC(=O)NC1c1cc(C)ccc1C (configuration not stated) | 0.1
CSc1nccn1CC(=O)Nc1ccc(F)cc1 | 1.4
CC(C)=CCc1c(O)ccc(C(=O)Cc2ccccc2)c1O | i
CCOc1ccc(S(=O)(=O)N2CCN(c3ccc(C)cc3C)CC2)cc1 | 0.5
CCCCC(=O)NCCc1cc2c(OC)ccc(OC)c2[nH]c1=O | 0.5
CCOC(=O)C(=O)/C(C#N)=C/Nc1ccc(Cl)cc1 | i
CNCc1ccccc1OCC(=O)Nc1ccccc1 | 0.0
COc1ccc(NC(=O)Cn2nnc(-c3ccccc3NC(=O)c3cccs3)n2)cc1 | 0.4
CC1(C)OC(=O)C(=CNCC(=O)NCC(=O)O)C(=O)O1 | 0.4
CCc1ccc(NC(=O)N(CCCN2CCOCC2)Cc2cccs2)cc1 | i
Cc1cccc2sc(NC(=O)CCNS(=O)(=O)c3cccc4nonc34)nc12 | 3.5
CCCc1nnc(NC(=O)c2ccc(N3C(=O)C4C5C=CC(C5)C4C3=O)cc2)s1 (configuration not stated) | i
CC1SC(c2cccc(Cl)c2)NC1=O (configuration not stated) | 0.1
O=C(OCCCN=C1NS(=O)(=O)c2ccccc21)c1ccccc1F | 0.2
CN1CCN(NC(=O)c2ccc(F)cc2)CC1 | 0.3
Oc1ccccc1C1=Nc2ncnn2C(c2ccc(F)cc2)C1 (configuration not stated) | i
O=C(Cn1nnc2c(cnn2-c2ccc(F)cc2)c1=O)OC1CCCCC1 | i
CCCCOc1ccccc1NC(=O)CC1SC(=NCC)N(CC)C1=O (configuration not stated) | i
COc1cccc(C=Nc2ccccc2C(=O)Nc2nccs2)c1OC | i
CCOC(=O)c1[nH]c2ccccc2c1NC(=O)CN1CCCCC1 | 0.5
COC(=O)CCC(=O)c1oc2ccccc2c1NC(=O)CCCN1C(=O)c2ccccc2C1=O | i

# Already shown: an excerpt of the list.
mol | H5N1 CPE
CCOC(=O)c1[nH]c2ccccc2c1NC(=O)CN1CCCCC1 | 0.5
COC(=O)CCC(=O)c1oc2ccccc2c1NC(=O)CCCN1C(=O)c2ccccc2C1=O | i

# Continuation.
mol | H5N1 CPE
O=C(NC1CCCc2ccccc21)C1CCC(CNS(=O)(=O)c2cccc3nsnc23)CC1 (configuration not stated) | i
COc1ccc(/C=C2\CCCC3C2=NN(C(=O)c2scnc2C)C3c2ccc(OC)cc2)cc1 (configuration not stated) | 0.9
COc1ccc(C(=O)NC2CCN(C(=S)Nc3cccc(C)c3)CC2)cc1 | i
O=C(Nc1cc(C(F)(F)F)ccc1F)C1CCCC1 | 0.3
C=CCn1c(=N)n(CC(O)c2ccco2)c2ccccc21 (configuration not stated) | 2.3
COc1ccc(-n2nc(C(=O)NCc3ccco3)c3c4ccccc4n(C)c3c2=O)cc1Cl | i
COc1ccc(OC)c(NC(=O)c2nnn(Cc3ccc(Br)cc3F)c2N)c1 | i
COc1ccc(Oc2nc(Oc3ccc(OC)cc3)nc(Oc3ccc(OC)cc3)n2)cc1 | 0.4
C/C=C/c1ccc(OCCn2cncn2)c(OC)c1 | 0.2
CCOc1ccccc1C(=O)Nc1cccc(-c2nnc(-c3ccccc3)o2)c1 | i
CC(C)[C@@H](C(=O)NCC1CCC(C(=O)O)CC1)n1nnc2ccccc2c1=O (some centres not stated) | 1.9
CCOc1cc(N2CCOCC2)c(OCC)cc1NC(=O)CSc1cccc[n+]1[O-] | 0.5
CCn1c(SCC(=O)Nc2nc3ccc(C)cc3s2)nc2c(c1=O)SC(C)C2 (configuration not stated) | 1.7
CCOc1ccc(NC(=O)C(CC)NC(=O)c2ccccc2CO)cc1 (configuration not stated) | i
Cn1ncc(Br)c1C(=O)Nc1ccc(Cl)cn1 | 0.4
COCCNC(=O)COC(=O)/C=C/c1cnc2ccccc2n1 | 0.4
CCN(CC)c1nc2ccccc2nc1C(C#N)C(=O)NCCc1ccccc1 (configuration not stated) | 0.9
COc1cccc(NC(=O)Nc2cc(C)ccc2F)c1 | 0.3
CC(=O)c1c(C)n(C)c2ccc(OC(=O)c3ccco3)cc12 | 0.5
O=S(=O)(NCC1CCCO1)c1cccc(C(F)(F)F)c1 (configuration not stated) | i
Cc1ccc(N2CCN(CCc3nc4cc(NC(=O)c5ccco5)ccc4n3C)CC2)cc1 | i
CC(OC(=O)CN(C)S(=O)(=O)c1ccc(Cl)cc1)C(=O)Nc1cccc(Cl)c1 (configuration not stated) | 0.3
Cc1cc(C(=O)CSc2nnc(Nc3ccccc3F)s2)c(C)n1CC1CCCO1 (configuration not stated) | 0.9
CCOC(=O)c1ccc(OCC(=O)c2ccc(O)cc2O)cc1 | i

# Structural class: the entries above containing a nitro group on carbon (2)
mol | H5N1 CPE
Cc1ccc(N2CC(C(=O)OCc3ccc([N+](=O)[O-])cc3)CC2=O)cc1 (configuration not stated) | i
O=[N+]([O-])c1cccc(-c2nnn(C34CC5CC(CC(C5)C3)C4)n2)c1 | 1.5

# (continued)
mol | H5N1 CPE
O=C(CCN1C(=O)c2cccc3cccc(c23)C1=O)N1CCN(Cc2ccc3c(c2)OCO3)CC1 | 2.5
O=C(CSc1nnc(-c2ccc(F)cc2)o1)N1CCN(C(=O)c2ccco2)CC1 | 0.5
Cc1[nH]c2ccccc2c1C(=O)COC(=O)C1CCC(=O)N1 (configuration not stated) | i
Cn1cnnc1Sc1nc2ccccc2nc1NS(=O)(=O)c1ccccc1 | 0.1
Cc1oc(-c2ccccc2F)nc1CS(=O)CC(=O)NCc1cccs1 (configuration not stated) | 0.0
O=C1CC(c2ccccc2)CC(O)=C1C=NCc1ccccc1Cl (configuration not stated) | i
CN(C)c1ccnc(SCc2ccccc2Cl)c1C#N | 0.2
CC(C)(C)n1nnnc1C(c1cccs1)N1CCN(Cc2ccc3c(c2)OCO3)CC1 (configuration not stated) | i
Cc1onc(-c2c(F)cccc2Cl)c1C(=O)NCc1cccs1 | 1.3
Cc1nc2ccc3nc(NC(=O)c4ccc5c(c4)OCCO5)sc3c2s1 | i
Cc1ccc(Cn2c(N3CCCCCC3)nc3c2c(=O)[nH]c(=O)n3C)cc1 | 1.4
